Mtb hypoxia rep: inhibitors of hypoxia-regulated fluorescent reporter in Mycobacterium tuberculosis; fluorescence inhibition, % (concentration not given with the values); AID 1159583; M. tuberculosis hypoxia-regulated fluorescent reporter, fluorescence; 0.1% of 300,000 active;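 active means 35 to 45% if threefold the growth effect, above 45% if 1.5-fold the growth effect; inactive means the rest, general growth blockers included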;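 further: wells of about 50 µL received 100 nL stock; 0% = vehicle wells and 100% = reference inhibitor wells; whole bacteria with a GFP reporter of the hypoxia response; strong numbers were not always called active; many hits fall short of the cut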
Autofluor counter: counter-screen for toxin protease inhibitors: compound fluorescence; fluorescence intensity (concentration not given with the values); 3.1% of 360,000 active; AID 624483; compound autofluorescence counterscreen, microsphere flow cytometry; stronger effect = higher value;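 active means at least 3 SD above the mean of all compounds, about 16000 in these data; inconclusive means too few beads counted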;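 further: 100 nL of 1 mM stock went into each well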
Sa RN4220 lethal: S. aureus RN4220 growth inhibition. OD600, 16 h. inhibition, % (concentration not given with the values). 0.33% of 330,000 active;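 active means z-score of -3 or lower and OD600 up to 0.18 on both plates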;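 further: plate controls were untreated cells for no effect and reference antibiotic for full effect; stock transfer was 100 nL into about 80 µL; one replicate is shown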
PrP UTR inh: inhibition of PrP 5' UTR reporter expression; cell-based PrP 5' UTR mRNA reporter, plate reader; inhibition, % (concentration not given with the values); 0.35% of 340,000 active;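 active means every replicate at 50% or more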;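 further: 0 = median of the neutral control wells; tested in H4 reporter cells; numbers are from one replicate; inactives centre near -14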
ugtP null kill: compounds lethal to S. aureus RN4220 ugtP deletion mutant; 0.54% of 330,000 active; OD600 growth, 16 h; some inactives read as strong as hits; AID 1259309; growth inhibition, % (test concentration not listed);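 active means z-score under -3 and OD600 up to 0.15 on both plates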;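 further: plate controls were untreated wells for no effect and antibiotic for full effect; wells of about 80 µL received 100 nL stock; the first replicate is given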
BJeLR lethal: kills HRASV12-expressing BJeLR cells; BJeLR (HRASV12) viability, CellTiter-Glo ATP luminescence, 48 h; reference of the scale not given here; inhibition, % (no concentration beside the values); 0.17% of 300,000 active;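 active means replicate mean above 50%; inconclusive means above 50% but judged a plate artefact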;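 further: 50 nL library stock added to about 25 µL; numbers are from one replicate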
Mtb hypoxia rep growth: further read-out of Mtb hypoxia rep, marked with its call; growth inhibition, %; measured here: M. tuberculosis growth (absorbance);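 0% = vehicle and 100% = reference antibiotic; read after six days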
* marks the source's active call; other numbers are inactive results; ? = inconclusive; . = not tested or not shown.

Start of the data: the first 11 compounds (preview)
#1 Cc1ccc(NS(=O)(=O)c2cc(C(=O)O)ccc2Cl)cc1
#2 Cc1cccc(N2CCN(c3ccc(NC(=O)/C=C(/C(=O)O)c4ccccc4)cc3)CC2)c1
#3 COc1ccc(CCNC(=O)CCC(=O)N2CC(C)Oc3ccc(Cl)cc32)cc1OC (configuration not stated)
#4 COc1cc(S(=O)(=O)NCc2ccncc2)ccc1Br
#5 c1ccc(/N=C2\N=C(Nc3ccccn3)c3ccccc32)nc1
#6 O=C(N/N=C/c1ccccc1)c1[nH]c2ccc(Br)cc2c1-c1ccccc1
#7 Cc1ccc(C=NNC(=O)Cn2c(C)nc3ccccc32)o1
Screen / compound no.	1	2	3	4	5	6	7
Mtb hypoxia rep	.	.	3	8	.	.	0
Mtb hypoxia rep growth	.	.	10	9	.	.	5
Autofluor counter	2791	4210	6251	4350	3581	2473	.
Sa RN4220 lethal	1.3	12	-4.2	1.0	.	.	2.0
PrP UTR inh	-4	-17	-18	-9	-2	59*	.
ugtP null kill	7	-5	-9	1	.	.	-1
BJeLR lethal	-6	3	-8	6	16	17	.

#8 COc1ccc(CCNC(=O)CN(C)S(=O)(=O)c2ccc3nc(C)sc3c2)cc1OC
#9 O=C(O)c1cccc(CSc2nnc(Cc3ccccc3)o2)c1
#10 Brc1ccc(-c2ccc(C=NNc3nc(N4CCOCC4)nc(N4CCOCC4)n3)o2)cc1
#11 CCCCNc1c(-c2ccc(OC)c(Sc3ccc(OC)cc3)c2)nc2ccccn12
Screen / compound no.	8	9	10	11
Mtb hypoxia rep	7	-7	13	.
Mtb hypoxia rep growth	3	5	13	.
Autofluor counter	5310	22785*	.	4161
Sa RN4220 lethal	2.5	-2.3	16	.
PrP UTR inh	-14	-4	.	-1
ugtP null kill	7	-10	19	.
BJeLR lethal	-5	0	.	1

This part in full (from the top)
#1 Cc1ccc(NS(=O)(=O)c2cc(C(=O)O)ccc2Cl)cc1
#2 Cc1cccc(N2CCN(c3ccc(NC(=O)/C=C(/C(=O)O)c4ccccc4)cc3)CC2)c1
#3 COc1ccc(CCNC(=O)CCC(=O)N2CC(C)Oc3ccc(Cl)cc32)cc1OC (configuration not stated)
#4 COc1cc(S(=O)(=O)NCc2ccncc2)ccc1Br
#5 c1ccc(/N=C2\N=C(Nc3ccccn3)c3ccccc32)nc1
Screen / compound no.	1	2	3	4	5
Mtb hypoxia rep	.	.	3	8	.
Mtb hypoxia rep growth	.	.	10	9	.
Autofluor counter	2791	4210	6251	4350	3581
Sa RN4220 lethal	1.3	12	-4.2	1.0	.
PrP UTR inh	-4	-17	-18	-9	-2
ugtP null kill	7	-5	-9	1	.
BJeLR lethal	-6	3	-8	6	16

#6 O=C(N/N=C/c1ccccc1)c1[nH]c2ccc(Br)cc2c1-c1ccccc1
#7 Cc1ccc(C=NNC(=O)Cn2c(C)nc3ccccc32)o1
#8 COc1ccc(CCNC(=O)CN(C)S(=O)(=O)c2ccc3nc(C)sc3c2)cc1OC
#9 O=C(O)c1cccc(CSc2nnc(Cc3ccccc3)o2)c1
#10 Brc1ccc(-c2ccc(C=NNc3nc(N4CCOCC4)nc(N4CCOCC4)n3)o2)cc1
Screen / compound no.	6	7	8	9	10
Mtb hypoxia rep	.	0	7	-7	13
Mtb hypoxia rep growth	.	5	3	5	13
Autofluor counter	2473	.	5310	22785*	.
Sa RN4220 lethal	.	2.0	2.5	-2.3	16
PrP UTR inh	59*	.	-14	-4	.
ugtP null kill	.	-1	7	-10	19
BJeLR lethal	17	.	-5	0	.

#11 CCCCNc1c(-c2ccc(OC)c(Sc3ccc(OC)cc3)c2)nc2ccccn12
#12 COc1ccc(NC(=O)c2cn(-c3ccccc3)nc2-c2cc3ccccc3o2)cc1
#13 CC(=NNC(=O)C(c1ccccc1)c1ccccc1)c1ccccn1
#14 C=C(C)CSc1nc2ccccc2[nH]1
#15 COc1ccccc1OCCNC(=O)C1CC(=O)N(Cc2ccccc2)C1 (configuration not stated)
Screen / compound no.	11	12	13	14	15
Mtb hypoxia rep	.	6	-5	8	3
Mtb hypoxia rep growth	.	10	-5	4	7
Autofluor counter	4161	2894	.	1981	3997
Sa RN4220 lethal	.	-2.7	5.2	4.6	1.6
PrP UTR inh	-1	-48	.	-17	-17
ugtP null kill	.	10	-13	8	2
BJeLR lethal	1	14	.	-10	.

#16 CSc1cccc(NC(=O)CN(C)S(=O)(=O)c2ccc(F)cc2)c1
#17 CC1C/C(=C/c2ccncc2)C(=O)/C(=C/c2ccncc2)C1 (configuration not stated)
#18 CCSc1nnc(NC(=O)NC(C)(C(F)(F)F)C(F)(F)F)s1
#19 COc1ccccc1NS(=O)(=O)c1cc(NC(=O)c2sccc2C)ccc1N1CCCC1
#20 COc1cc(C(c2c(O)c3ccccc3oc2=O)c2c(C)n(C)n(-c3ccccc3)c2=O)ccc1O (configuration not stated)
Screen / compound no.	16	17	18	19	20
Mtb hypoxia rep	.	.	5	-16	-2
Mtb hypoxia rep growth	.	.	-4	-17	-3
Autofluor counter	3682	4502	2063	2554	2075
Sa RN4220 lethal	3.4	7.5	23	5.2	-2.0
PrP UTR inh	-12	17	-15	-13	-24
ugtP null kill	0	-3	-18	-10	83*
BJeLR lethal	-13	54*	-5	-2	-6

#21 COc1ccc(CN2CCN(C(=O)c3cccs3)CC2)cc1Br
#22 CCOc1ccc(CCNC(=O)C2(c3ccccc3)CC2)cc1OCC
#23 CC(CN1CCCC(C(N)=O)C1)c1ccccc1 (configuration not stated)
#24 CNC(=S)Nc1cc(S(=O)(=O)Nc2cc(Cl)ccc2Cl)ccc1N1CCCC1
#25 CCOC(=O)COc1nc2ccc(Br)cc2c(-c2ccccc2)c1C(C)=O
Screen / compound no.	21	22	23	24	25
Mtb hypoxia rep	.	13	8	3	-6
Mtb hypoxia rep growth	.	8	0	0	5
Autofluor counter	4526	6645	15999	3492	4131
Sa RN4220 lethal	-0.8	-0.5	3.3	28	1.6
PrP UTR inh	-7	4	-21	-11	-22
ugtP null kill	1	1	10	-8	12
BJeLR lethal	1	-1	5	-3	5

#26 O=C(CCN1C(=O)C2CC=CCC2C1=O)NC1CCCCC1 (configuration not stated)
#27 Cc1cc(C)nc(NN=Cc2cccc([N+](=O)[O-])c2)n1
#28 COc1cc(NC(=O)CN2C(=O)NC(C)(c3ccccc3)C2=O)c(C)cc1[N+](=O)[O-] (configuration not stated)
#29 CCOC(=O)N1CCN(C(=O)COc2ccc(S(=O)(=O)NC3CCCCC3)cc2C)CC1
#30 O=C(CCNS(=O)(=O)c1ccccc1F)N1CCN(C/C=C/c2ccccc2)CC1
Screen / compound no.	26	27	28	29	30
Mtb hypoxia rep	0	6	-1	.	10
Mtb hypoxia rep growth	-2	10	-5	.	-4
Autofluor counter	6617	.	2524	4856	7551
Sa RN4220 lethal	2.9	3.6	8.0	3.3	4.3
PrP UTR inh	-10	.	0	-19	-18
ugtP null kill	5	10	9	4	5
BJeLR lethal	9	.	0	-3	0

#31 CCN(Cc1ccccc1)S(=O)(=O)c1ccc2c(c1)NC(=O)CC(=O)N2
#32 CCc1ccc(OC(=O)Nc2ccccc2)cc1
#33 Cc1ccc(NC(=O)CN(C)C(=O)c2cc(S(=O)(=O)N(C)C)ccc2N2CCCC2)cc1
#34 Clc1cccc(-c2nc(NCc3cccnc3)c3ccccc3n2)c1
#35 C[C@]12c3[nH]c4ccccc4c3CCN1C(=O)C(CC(=O)NCC13CC4CC(CC(C4)C1)C3)C[C@@H]2C(=O)N1CCCCC1 (some centres not stated)
Screen / compound no.	31	32	33	34	35
Mtb hypoxia rep	-6	10	3	1	-11
Mtb hypoxia rep growth	-4	2	12	15	-3
Autofluor counter	4405	3198	?	17205*	2882
Sa RN4220 lethal	3.9	1.7	3.2	4.0	-11
PrP UTR inh	-35	-99	-1	3	-19
ugtP null kill	10	-2	6	-16	-27
BJeLR lethal	1	-5	-6	-2	.

#36 O=C(NN=C(Cc1ccccc1)Cc1ccccc1)c1ccc(F)cc1
#37 C=CCOc1c(CNc2ccc(C(=O)O)cc2)cccc1OCC
#38 CC(=O)Nc1ccc(S(=O)(=O)NC2(C(F)(F)F)C(=O)Nc3c2c(=O)[nH]c(=O)n3Cc2ccccc2)cc1 (configuration not stated)
#39 CC(NS(=O)(=O)c1ccccc1)C(=O)Nc1ccc2c(c1)OCCO2 (configuration not stated)
#40 CCN1C(=O)c2ccccc2Sc2ccc(C(=O)NCCCN3CCOCC3)cc21
Screen / compound no.	36	37	38	39	40
Mtb hypoxia rep	5	6	9	4	12
Mtb hypoxia rep growth	18	7	11	9	5
Autofluor counter	2175	19846*	2630	4983	3860
Sa RN4220 lethal	11	1.7	0.7	4.5	2.2
PrP UTR inh	-17	-52	-11	-20	-21
ugtP null kill	1	6	2	4	4
BJeLR lethal	-7	2	8	5	6

#41 CCC1CCC2(CC1)NNC(=S)NN2
#42 COc1ccc(-n2c(C)c(C)c3c(NCCN(C)C)ncnc32)cc1
#43 O=C(CSc1nc2ncccc2[nH]1)Nc1ccccc1-c1ccccc1
#44 COc1ccc(N(CC(=O)NCc2cccs2)S(=O)(=O)c2c(C)n[nH]c2C)cc1
#45 CC(=O)N1CCN=C1SCc1ccc(F)cc1
Screen / compound no.	41	42	43	44	45
Mtb hypoxia rep	.	-4	0	12	.
Mtb hypoxia rep growth	.	-10	-5	0	.
Autofluor counter	10193	3095	4221	9489	6356
Sa RN4220 lethal	.	4.2	2.5	-1.1	-2.4
PrP UTR inh	6	3	-17	-29	-17
ugtP null kill	.	0	1	2	6
BJeLR lethal	-2	-2	2	9	6

#46 COc1ccccc1NC1SC(=O)N(c2ccccc2)C1=O (configuration not stated)
#47 COc1ccc(NC(=O)Nc2cccc(F)c2)c(OC)c1
#48 COc1cccc(-n2cnnc2SCC(=O)NC2CC2)c1
#49 Cc1ccccc1CCN1CCCC(CN(C)C(=O)c2ccc3ncccc3c2)C1 (configuration not stated)
#50 CC12CCC3C(CCC4CC(O)CCC43C)C1CC(O)C2 (configuration not stated)
Screen / compound no.	46	47	48	49	50
Mtb hypoxia rep	3	3	2	-2	16
Mtb hypoxia rep growth	3	1	2	2	13
Autofluor counter	4141	2491	5161	3493	2995
Sa RN4220 lethal	2.2	1.9	5.4	2.2	7.7
PrP UTR inh	-12	-27	1	-22	-5
ugtP null kill	1	6	1	9	30
BJeLR lethal	-6	-3	.	-7	.

#51 CCN1C(=O)[C@@H]2[C@@H](c3ccc(-c4ccc(Cl)c(Cl)c4)cc3)N3CCCC[C@@]3(C(=O)OC)[C@@H]2C1=O
#52 CC(O)CNc1ccc(-c2n[nH]c(=O)c3ccccc23)cc1[N+](=O)[O-] (configuration not stated)
#53 CCOC(=O)c1cccc(NC(=O)c2ccco2)c1
#54 COc1cccc(CN(C)C(=O)c2ccc(OCC(=O)N3CCOCC3)c(OC)c2)c1
#55 Nc1cccc(-c2csc(-n3ncc(C(=O)O)c3C(F)(F)F)n2)c1
Screen / compound no.	51	52	53	54	55
Mtb hypoxia rep	.	8	6	4	-4
Mtb hypoxia rep growth	.	-11	3	2	5
Autofluor counter	4069	3111	23498*	3612	3539
Sa RN4220 lethal	.	5.2	5.5	0.9	0.5
PrP UTR inh	-13	14	-53	-3	-30
ugtP null kill	.	12	7	3	-9
BJeLR lethal	-8	-2	-2	.	-7

#56 COc1ccccc1-c1cc(C(F)(F)F)c(C#N)c(=O)[nH]1
#57 Cc1cc(C)nc(SCc2nnc(SCC(=O)Nc3ccc(C)c(C)c3)o2)n1
#58 COC(=O)c1sc2nc(CN3CCOCC3)nc(N3CCOCC3)c2c1C
#59 CCOC(=O)CSC1=C(C#N)C(=O)NC(c2ccc(OC)c(OC)c2)S1 (configuration not stated)
#60 O=C(c1ccc(Cl)nc1)N1CCN(S(=O)(=O)c2ccc(Cl)cc2)CC1
Screen / compound no.	56	57	58	59	60
Mtb hypoxia rep	13	4	.	.	3
Mtb hypoxia rep growth	-3	8	.	.	-2
Autofluor counter	2639	8582	3892	3156	3798
Sa RN4220 lethal	17	3.3	2.2	.	1.9
PrP UTR inh	-22	-3	-23	-7	-48
ugtP null kill	9	5	8	.	9
BJeLR lethal	5	-2	5	-1	-8

Screening results: PubChem BioAssay, several laboratories
